# From PubChem
# MARV entry inh – blocks Marburg virus binding to or entry into cells | Marburg virus pseudotyped entry inhibition, cell reporter; control for the full effect not named in the record; about a third of the inactives were read at about 46 µM | Potency, µM (series often up to 37.8 µM), for the others: top-dose activity change, negative = inhibition, usual class: inhibitors | 1.8% of 300,000 active | AID 540276; active = well fitted inhibition curve with a large enough effect; inconclusive = small, poorly fitted or top-dose-only effect, or effect the other way; inactive = flat fitted curve, though single readings scatter; tested in HEK293 cells; about a fifth of its hits are not listed in these tables; further: on the % scale 0 is the no-effect control and ±100 the full control effect; luciferase read-out
# Cruzain inh Det – inhibitors of Trypanosoma cruzi cruzain with detergent; 0.43% of 200,000 active; purified cruzain, Z-FR-AMC fluorescence, 0.01% Triton; Potency, µM, for the others: max response, negative = inhibition, usual class: inhibitors; P25779;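 further: plate controls were neutral wells for no effect and buffer without enzyme for full effect; nearly all actives have a fitted effect of over 40% in size; top concentration of the series not given in the record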
# Target sequence (P25779 123-467 limits assumed): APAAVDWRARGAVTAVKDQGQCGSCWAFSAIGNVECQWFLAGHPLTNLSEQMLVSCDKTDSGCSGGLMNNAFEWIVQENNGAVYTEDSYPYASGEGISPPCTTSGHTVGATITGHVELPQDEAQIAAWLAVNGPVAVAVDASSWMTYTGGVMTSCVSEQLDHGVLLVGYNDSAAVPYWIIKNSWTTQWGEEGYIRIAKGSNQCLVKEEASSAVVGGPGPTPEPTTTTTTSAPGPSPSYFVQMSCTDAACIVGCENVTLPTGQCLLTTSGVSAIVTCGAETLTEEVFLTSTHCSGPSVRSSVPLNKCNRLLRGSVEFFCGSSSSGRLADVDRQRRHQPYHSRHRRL
#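 Detergent-containing arm of a paired screen for aggregation-based inhibition: 0.01% Triton X-100 present. Cruzain at 1.5 nM cleaved 2 uM Z-FR-AMC at pH 5.5 with 5 mM DTT; AMC fluorescence gain over 60 s measured activity.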
# StopGo reporter – FMDV 2A StopGo reporter, luciferase signal; human cells with a luciferase reporter of 2A StopGo recoding; control for the full effect not named in the record; Potency, µM (highest dose often 57.9 µM), inactives show at the top dose signal change, negative = less light; 1.2% of 410,000 active; AID 1159524; active = well fitted falling curve with a large enough effect; inconclusive = small, poorly fitted or top-dose-only effect; inactive = no such curve, though single readings can be large or run the other way; tested in HEK293T cells; further: on the % scale 0 is the no-effect control and ±100 the full control effect; nearly all actives have a fitted effect of over 45% in size; luciferase light after 4 h
# SARS PLpro yeast – SARS-CoV PLP inhibition in yeast. S. cerevisiae expressing SARS-CoV PLpro, growth rescue; control for the full effect not named in the record. Potency, µM (top dose mostly 32.9 µM), inactives show top-dose activity, positive = growth rescue. 0.19% of 330,000 active. AID 485353; active means well fitted rising curve with a large enough effect; inconclusive means small, poorly fitted or top-dose-only effect; inactive means no such curve, though single readings can be large or run the other way; further: 0% is about no effect; nearly all actives have a fitted effect of over 55% in size; growth read by luminescence after 48 h
# LASV entry inh – Lassa virus entry inhibition; Lassa virus pseudotype entry inhibition, cell reporter; control for the full effect not named in the record; Potency, µM (doses to about 37.9 µM), without a hit: at the top dose activity change, negative = inhibition, hits mostly inhibitors; 1.2% of 300,000 active; AID 540256; active means well fitted inhibition curve with a large enough effect; inconclusive means small, poorly fitted or top-dose-only effect, or effect the other way; inactive means flat fitted curve, though single readings scatter; tested in HEK293 cells; further: on the % scale 0 is the no-effect control and ±100 the full control effect; nearly all actives have a fitted effect of over 50% in size; luciferase read-out
# RE007 growth inh – less growth of the S. pombe RE007 Vpr strain. S. pombe RE007 Vpr strain, BacTiter-Glo ATP luminescence, 24 h; control for the full effect not named in the record. Potency, µM (titrated, usually from 92.2 µM), for inactives: at the highest dose activity change, negative = less growth. 0.21% of 360,000 active; active = well fitted falling curve with a large enough effect; inconclusive = small, poorly fitted or top-dose-only effect; inactive = no such curve, though single readings can be large or run the other way;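 further: on the % scale 0 is the no-effect control and ±100 the full control effect; nearly all actives have a fitted effect of over 50% in size; the assay follows cell death caused by Vpr and the record does not say whether a fall means rescue or toxicity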
#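 Fission yeast strain RE007, carrying one chromosomally integrated HIV-1 vpr copy, was seeded at OD 0.01 in PMG+AL medium with 23 nL pinned compound. After 24 h at 30 °C and 99% humidity, viability was read by BacTiter-Glo luminescence.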
# Cruzain noTriton – cruzain (T. cruzi) inhibition without detergent | Potency, µM, for inactives: max response, negative = inhibition, hits mostly inhibitors | purified cruzain, Z-FR-AMC fluorescence, no detergent | 2.3% of 200,000 active | P25779;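 further: plate controls were enzyme without inhibitor for no effect and buffer without enzyme for full effect; nearly all actives have a fitted effect of over 40% in size; top concentration of the series not given in the record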
#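 Purified cruzain at 1.5 nM, pre-incubated 15 min with compound at room temperature in 100 mM sodium acetate pH 5.5, 5 mM DTT, 0.00005% Triton X-100. Reaction started with 2 uM Z-FR-AMC; AMC fluorescence increase over 60 s gives rate.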
# NS1 inh – blocks influenza NS1 protein function; S. cerevisiae slowed by influenza A NS1, growth recovery by OD600; Potency, µM (series often up to 46.1 µM), without a hit: at the top dose activity, positive = more growth; 0.4% of 270,000 active; active means well fitted rising curve with a large enough effect; inconclusive means small, poorly fitted or top-dose-only effect; inactive means no such curve, though single readings can be large or run the other way; further: nearly all actives have a fitted effect of over 50% in size
#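 S. cerevisiae expressing influenza A NS1, grown in glucose, washed, then diluted 1:100 into pH 6.0 -URA galactose medium with 23 nl compound. Growth recovery read as OD600; NS1-free strain serves as control.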
# Active calls of the source: *; ? = inconclusive; nt = no result given; & = joins results of further samples; [ ] = another dose, or the depositor's remark. Unless noted, the call rests on the fitted dose curve; in most records, active means well fitted curve in the direction sought with a large enough effect; inconclusive means small, poorly fitted or top-dose-only effect, or another doubt; inactive means no such curve, though single readings can be large; an effect the other way counts as inactive or inconclusive. Potency means the concentration at half of the fitted maximal effect. Rows were taken by chance (roughly 4.7% active in at least one column).
SMILES,MARV entry inh,Cruzain inh Det,StopGo reporter,SARS PLpro yeast,LASV entry inh,RE007 growth inh,Cruzain noTriton,NS1 inh
COc1ccc(C2/C(=C(\O)c3ccc4c(c3)OCCO4)C(=O)C(=O)N2CCCN(C)C)cc1 (stereo unspecified),?,7.9%,-9%,8%,18%,-14%,-11%,2%
Cc1cc(C)cc(NC(=O)Nc2nnc(N(C)C3CCCCC3)s2)c1,?,-6.0%,8%,nt,0%[46.1 µM],nt,?,nt
CC(C)CNC(=S)N(CCO)Cc1cc2cc3c(cc2[nH]c1=O)OCO3,nt,nt,-2%,1%,nt,4%,nt,25%
O=C(CCN1CCCCC1)c1ccc2c(c1)OCO2,-10%,-22%,-5%,-18%,-5%,7.9µM*,-8%,-11%
CCOc1ccc(C2/C(=C(\O)c3cccc(OC)c3)C(=O)C(=O)N2c2ccccn2)cc1OC (stereo unspecified),-3%[46.1 µM],nt,-9%,0%,4%[46.1 µM],-12%,nt,1%
Cc1ccc(S(=O)(=O)N2CCN(C(=O)c3ccccc3OCc3c(C)noc3C)CC2)cc1C,-28%[46.1 µM],nt,-14%,-3%,?,-3%,nt,nt
Cc1ccc2oc(/N=C(\N)NC(=O)C3CC3)nc2c1,-2%,nt,-22%,-2%,nt,-8%,nt,-1%
O=C(N[C@H](CO)[C@H](O)c1ccc([N+](=O)[O-])cc1)C(Cl)Cl,nt,1.2%&8.4%,-6%&-13%,nt,nt,-4%,-2%&15%,nt
NC(=O)c1ccc[n+](CC(=O)c2ccc(Cl)c(Cl)c2)c1,nt,nt,6%,-1%,nt,-9%,nt,0%
COc1ccc(OC)c(NC(=O)c2cc3c(=O)n4cccc(C)c4nc3n2C)c1,nt,-1.4%,-11%,nt,-2%[46.1 µM],nt,15%,nt
O=C(NCCN1CCOCC1)NC1(C(F)(F)F)Oc2ccccc2O1,?,2.0%,-18%,-4%,-28%,27%,-12%,3%
CCCN(CCC)CCN1C(=O)C2C(C(=O)Nc3cccc(SC)c3)C3C=CC2(O3)C1C(=O)NC1CCCCC1 (stereo unspecified),?,nt,-3%,4%,11%[46.1 µM],0%,nt,-5%
COc1cc(NS(C)(=O)=O)c(OC)cc1NC(=O)c1ccccc1,8%,0.6%,6%,-1%,10%,3%,-8%,-3%
CC1CC(CCC(=O)NC(=S)Nc2ccc(Cl)cn2)C(=O)O1 (stereo unspecified),3%[46.1 µM],nt,-4%,0%,-3%,4%,nt,0%
COc1ccc(N(CC(=O)NCCSC(C)(C)C)S(C)(=O)=O)c(OC)c1,4%,1.7%,3%,3%,-7%,0%,6%,5%
Cc1c(Cl)cccc1NC(=O)COC(=O)CN1C(=O)NC(C)(C)C1=O,nt,nt,-8%,-1%,nt,-9%,nt,-6%
COc1cccc(/C=N/NC(=O)c2nnn(-c3nonc3N)c2-c2cccs2)c1,nt,nt,-21%,0%,nt,5%,nt,?
O=S(=O)(Nc1cc(C(F)(F)F)ccc1N1CCOCC1)c1ccc2ccccc2c1,-57%,-11%,4%,-6%,?,-11%,17%,-12%
CCOC(=O)c1c(NC(=O)c2cc(-c3ccc(OC)cc3)on2)sc(C)c1C,-14%[46.1 µM],-2.3%,-7%,nt,-10%[46.1 µM],nt,-10%,nt
COc1ccc(Nc2cc(C(=O)NCCCN(C)C3CCCCC3)c3ccccc3n2)cc1,10µM*,-12%,0%,nt,?,nt,-11%,nt
CCC(C)[C@H](NC(=O)[C@@H]1Cc2ccccc2CN1)C(=O)NCc1ccc(OC)cc1 (stereo partly specified),nt,nt,-16%,-3%,nt,-19%,nt,-9%
COc1ccc(-c2nn(CC(=O)NCc3ccccc3)c3c2cnc2ccc(F)cc23)cc1,nt,0.3%,20%,nt,20%[46.1 µM],nt,?,nt
CCN(CC)CCn1c2c(c(SCC(=O)Nc3cccc4ccccc34)nc1=O)CCCC2,?,nt,-11%,nt,-6%,6%,nt,nt
O=C1C=C(C2CCCCC2)C(=O)c2ccccc21,-26%[46.1 µM],nt,-16%,nt,-16%[46.1 µM],?,nt,nt
c1ccc(-c2nc(NCCCN3CCOCC3)c3ccccc3n2)cc1,-17%,0.5%,-25%,3%,-10%,-16%,7%,-7%
# New compounds follow:
SMILES,MARV entry inh,Cruzain inh Det,StopGo reporter,SARS PLpro yeast,LASV entry inh,RE007 growth inh,Cruzain noTriton,NS1 inh
O=S(=O)(Cc1ccc(Cl)cc1)c1ccccc1-c1nnc(-c2ccc(Cl)cc2)o1,?,4.1%,3%,-2%,-9%,-11%,?,13%
O=C(CCCOc1ccc(Cl)cc1Cl)NC(Cc1ccccc1)C(=O)O (stereo unspecified),-1%,nt,-4%,nt,-1%,7%,nt,nt
O=C(Cn1nnc(-c2ccc(NC(=O)c3ccccc3F)cc2)n1)NCc1ccc(F)cc1,nt,nt,11%,2%,nt,-2%,nt,-2%
COc1ccc(N2C(=O)CC(N3CCN(S(=O)(=O)c4cc(C)ccc4C)CC3)C2=O)cc1 (stereo unspecified),-3%[46.1 µM],nt,3%,0%,2%[46.1 µM],-16%,nt,nt
Clc1cc(Cl)cc(Nc2ncnc(-n3cccc3)n2)c1,-8%[46.1 µM],nt,0%,1%,1%[46.1 µM],-6%,nt,1%
O=C(NCC(c1cccnc1)N1CCN(Cc2ccccc2)CC1)C(=O)Nc1cccc(F)c1 (stereo unspecified),nt,0.2%,3%,nt,?,nt,-10%,nt
COc1ccc(S(=O)(=O)N2CCCCC2)cc1C(C)C,-16%[46.1 µM],-10%,9%,?,-30%,-1%,0%,-52%
CCOc1ccc(N(Cc2cc3cc(OC)ccc3[nH]c2=O)C(=O)C2CCCO2)cc1 (stereo unspecified),-1%[46.1 µM],-1.0%,-26%,1%,-28%,2%,3%,-23%
Cc1cc(C)c(NC(=O)NC(=O)C(Cl)(Cl)Cl)c(C)c1,-8%[46.1 µM],nt,0%,1%,1%,28%,nt,3%
CC(C)NC(=S)N/N=C/c1ccccc1[N+](=O)[O-],0%[46.1 µM],nt,-3%,17%,6%,21%,nt,-1%
CCCc1nc2sc3c(c2c(=O)[nH]1)CCCC3,3%,nt,21%,-2%,12%,?,nt,2%
O=C(NCc1cccs1)C1CC(=O)N(c2ccc(F)cc2)C1 (stereo unspecified),23%[46.1 µM],2.4%,22%,-2%,-1%,-15%,-5%,-3%
O=C(Nc1ccc(O)cc1)c1ccc(NC(=O)C2CCCO2)cc1 (stereo unspecified),nt,nt,19%,0%,nt,16%,nt,16%
CCN(CC)c1ccc(CNc2nc3ccccc3n2C(C)C)cc1,nt,nt,-15%,-6%,nt,-20%,nt,-5%
COC(=O)[C@@]1(Cc2ccc(F)cc2)[C@H]2c3cc(C(=O)N4CCCC4)n(CC4CC4)c3C[C@H]2CN1C(=O)c1ccccc1,nt,-1.9%,-23%,nt,nt,-24%,?,nt
Cc1ccc(NC(=O)CCC(=O)NNC(=O)c2cccs2)cc1C,20%,4.1%,9%,6%,?,6%,-6%,-2%
COc1ccc(N2CCN(C(=O)c3ccc(OCC4CCCO4)cc3)CC2)cc1 (stereo unspecified),-6%[46.1 µM],1.2%,-13%,9%,-3%,-19%,?,-14%
CCC1CCCCN1S(=O)(=O)c1ccc2c(c1)CCCN2C(C)=O (stereo unspecified),nt,-0.3%,1%,nt,24%[46.1 µM],nt,-6%,nt
Cc1cc(C(=O)NC(C)c2ccccc2)c2cc(F)ccc2n1 (stereo unspecified),nt,nt,-6%,0%,nt,-8%,nt,5%
Cc1ccccc1NC(=O)C(=O)c1cn(C)c2ccccc12,?,nt,20%,0%,?,-2%,nt,-6%
O=C(c1cccnc1)N1CCN(S(=O)(=O)c2ccc(S(=O)(=O)N3CCCC3)cc2)CC1,5%,5.9%,nt,4%,18%,11%,4%,7%
O=C1OC(C(=O)Nc2nccs2)Cc2ccccc21 (stereo unspecified),0%,-2.0%,11%,9%,18%,-3%,8%,5%
COc1ccc(Cl)cc1S(=O)(=O)N1CCN(c2ccc(F)cc2)CC1,?,-3.8%,-10%,-17%,0%,1%,-10%,-86%
O=C(CSc1ccccc1)N[C@@H](Cc1ccccc1)C(=O)O,nt,nt,1%,0%,nt,2%,nt,0%
C/C(=N\NS(=O)(=O)c1c(C)cc(C)cc1C)c1ccncc1,-18%[46.1 µM],nt,-3%,0%,-6%[46.1 µM],10%,nt,4%
# (more compounds)
SMILES,MARV entry inh,Cruzain inh Det,StopGo reporter,SARS PLpro yeast,LASV entry inh,RE007 growth inh,Cruzain noTriton,NS1 inh
CCN(C(=O)CSc1nc(N)cc(N)n1)C1CCS(=O)(=O)C1 (stereo unspecified),?,nt,-24%,0%,-9%,-2%,nt,7%
Cc1ccc2oc(-c3ccc(Cl)cc3)c(O)c(=O)c2c1,?,-2.1%,29%,nt,1%[46.1 µM],nt,-3%,nt
Cc1ccccc1NC(=O)c1c(NC(=O)c2cccs2)sc2c1CCC(C)C2 (stereo unspecified),nt,0.4%,-14%,nt,12%[46.1 µM],nt,-2%,nt
O=C1CC(=O)N(Cc2ccco2)C(=O)N1,?,5.6%,5%,-1%,14%,19%,-19%,19%
COc1ccc(NC(=O)CSc2nnc3ccc(-c4ccccn4)nn23)cc1,17%,nt,-10%,0%,-11%,14%,nt,nt
CC(C)c1ccc(-c2nnn(CCC#N)n2)cc1,46%[46.1 µM],nt,40%[activator],-1%,0%,21%,nt,-2%
CCOC(=O)C1C(c2ccc(O)c(OC)c2)NC(=S)NC1(O)C(F)(F)F (stereo unspecified),9%,-0.2%,1%,-9%,12%,0%,4%,6%
CC(C)CCNC(=O)C1CCCN(S(=O)(=O)c2ccc(F)cc2)C1 (stereo unspecified),-14%,3.8%,-26%,-2%,-15%,-6%,4%,-6%
O=C(COC(=O)c1cc([N+](=O)[O-])ccc1N1CCOCC1)Nc1cccc(F)c1,nt,nt,40µM*,2%,nt,-2%,nt,11%
Cc1ccc(C(=O)Nc2ccc3c(c2)OCCO3)c(Cl)c1,nt,nt,-57%,-9%,nt,-7%,nt,-17%
O=C(Nc1ccc(N2CCN(C(=O)c3ccccc3)CC2)cc1)c1cccs1,-2%[46.1 µM],nt,-4%,-3%,?,11%,nt,-9%
